E coli growth: inhibitors of Escherichia coli growth; OD600 absorbance (concentration not given with the values); AID 1053175; OD600, 23 h; stronger effect = lower value; actives 0.21% (n = 330,000);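 active means OD600 absorbance below the run mean of sample wells minus 3.6 SD, in any replicate, cut at about 0.56 in these data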;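 further: stock transfer was 300 nL into about 60 µL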
FGF22 binding: binders of recombinant human FGF22 by thermal shift | Q9HCT0 | SYPRO orange fluorescence; percent of sucrose octasulfate shift, DMSO zero | calls only at 9.99 µM | actives 1.5% (n = 340,000) | AID 651658;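 active means melting point raised past a set limit in the mean and every replicate; inconclusive means no clear call; three in four hits are not shown here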
Target sequence (Q9HCT0 whole entry, looked up): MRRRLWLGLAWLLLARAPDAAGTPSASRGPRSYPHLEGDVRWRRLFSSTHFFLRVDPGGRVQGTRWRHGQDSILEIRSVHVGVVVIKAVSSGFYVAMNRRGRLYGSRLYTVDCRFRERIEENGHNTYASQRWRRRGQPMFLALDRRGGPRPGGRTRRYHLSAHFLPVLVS
ALR H2O2 inh: blocks human ALR sulfhydryl oxidase activity | purified ALR, DTT oxidation, H2O2 HRP-luminol luminescence | inhibition, % (no concentration beside the values) | P55789 | actives 3.8% (n = 290,000);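 active means mean and each replicate at 75% or more; inconclusive means only one of the two met; inactive means neither met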;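 further: stock transfer was 7.5 nL into about 7.5 µL; 0% = neutral wells and 100% = wells with inactivated enzyme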
Target sequence (P55789 whole entry, looked up): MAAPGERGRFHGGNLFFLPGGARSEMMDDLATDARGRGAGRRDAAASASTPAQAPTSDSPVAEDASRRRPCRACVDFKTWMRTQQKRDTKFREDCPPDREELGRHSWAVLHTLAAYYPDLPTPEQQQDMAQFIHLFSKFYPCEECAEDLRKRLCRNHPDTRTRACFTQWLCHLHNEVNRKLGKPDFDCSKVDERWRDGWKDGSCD
AF4-AF9 inh: inhibitors of human MLL-AF4/AF9 interaction; AID 651704; P42568; inhibition, % at 10 µM; AlphaScreen, biotin-AF4 peptide binding to FLAG-AF9; actives 0.47% (n = 350,000);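 active means every replicate reaching a set inhibition limit, whatever the replicate mean, cut at about 25% in these data; inconclusive means mean inhibition reaches that limit but some replicates miss it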;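 further: 0% = plate neutral control median and 100% = total signal loss; the record names both 10 and 1 µM as test concentration; the first replicate is given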
Vif A3G: HIV-1 Vif–A3G interaction blockers – biochemical, TR-FRET, GST-Vif 1-94, biotin-A3G peptide, dose response retest, primary screen (AID 1117319); TR-FRET GST-Vif / biotin-A3G peptide binding; higher % means a stronger effect; test concentration not given here; strong numbers were not always called active; inhibition, %; hits with a dose series show IC50 in µM; actives 0.57% (n = 260,000);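 active means above the screen mean plus three standard deviations and confirmed in dose response; inconclusive means results disagree or hit not tested in dose response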;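 further: Vif residues 1-94 fused to GST binding biotinylated APOBEC3G peptide 110-148; 0% = full assay without inhibitor and 100% = GST in place of GST-Vif; retest series ran down from 100 µM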
rRNA inh HTS: selective bacterial rRNA inhibition in E. coli | actives 1.6% (n = 350,000) | GFP signal change (wild-type ribosome), % (no concentration beside the values) | E. coli WT GFP vs humanized-ribosome RFP mutants, fluorescence, 24 h; stronger effect = lower value; DMSO median 0, no signal -100;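 active means significant combined selectivity score with lowered wild-type GFP, culture density cut under 30%, mutant RFP and density less affected; inactive means any of these conditions unmet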; further: one replicate is shown; some compounds called inactive have numbers as strong as hits
HNF4A DNA FP: change in binding of human HNF4 alpha to DNA. actives 0.3% (n = 360,000). HNF4a-FITC DNA binding, fluorescence polarization, 1 h. P41235. activity change, % at 10 µM; in the data active means activity change above about 30%, passing the limit was not always enough;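 further: controls were the assay level and a saturating level of protein; the project sought stronger binding though the title names inhibitors; some compounds called inactive have numbers as strong as hits; positive values seem to mean higher polarization but the record does not say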
Target sequence (P41235 whole entry, looked up): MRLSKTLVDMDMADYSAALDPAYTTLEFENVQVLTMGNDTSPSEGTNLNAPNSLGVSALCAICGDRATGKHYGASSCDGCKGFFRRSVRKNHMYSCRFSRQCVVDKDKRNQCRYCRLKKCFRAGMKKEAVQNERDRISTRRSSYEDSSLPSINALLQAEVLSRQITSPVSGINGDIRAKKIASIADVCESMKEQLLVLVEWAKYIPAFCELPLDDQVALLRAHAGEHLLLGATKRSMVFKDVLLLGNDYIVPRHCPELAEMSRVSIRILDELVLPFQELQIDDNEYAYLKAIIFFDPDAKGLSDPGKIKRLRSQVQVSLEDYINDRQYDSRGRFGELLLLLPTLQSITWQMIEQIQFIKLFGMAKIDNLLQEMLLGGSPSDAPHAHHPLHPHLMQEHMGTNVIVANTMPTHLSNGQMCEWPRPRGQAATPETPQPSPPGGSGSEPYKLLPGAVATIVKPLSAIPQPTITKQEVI
rRNA inh HTS OD600: second read-out of rRNA inh HTS, no call of its own (marks repeat the call); OD600 change, %; measured here: OD600 growth;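 optical density of the mix in the first replicate; 0 = DMSO median and -100 = no signal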
rRNA inh HTS RFP: further read-out of rRNA inh HTS, marked with its call; RFP signal change, %; measured here: RFP humanized mutant strains;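 first replicate; 0 = DMSO median and -100 = no signal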
* marks the source's active call; other numbers are inactive results; i = inactive; ? = inconclusive; nt = no result given; & = joins results of further samples. Only part of the results is shown (hit frequency here may not be typical).

ALR H2O2 inh	Vif A3G	AF4-AF9 inh	rRNA inh HTS OD600	FGF22 binding	E coli growth	HNF4A DNA FP	rRNA inh HTS	rRNA inh HTS RFP	canonical_smiles
-15	nt	-2.8	8	i	nt	3.1	5	-0.7	OCC1=C[C@@H](O)C2C=CO[C@@H](O[C@@H]3O[C@H](CO)[C@@H](O)[C@H](O)[C@H]3O)C12 (some centres not stated)
1	12%	nt	nt	nt	0.72	0.4	nt	nt	COc1ccc(-c2nc3ccc([N+](=O)[O-])cc3o2)cc1
nt	nt	-3.2	-18	i	nt	nt	5	2.3	COc1ccc(CNC(=O)C[C@H]2C[C@H]3c4cc(NS(=O)(=O)c5ccc(F)cc5)ccc4O[C@H]3[C@H](CO)O2)cc1
nt	31%	-0.7	16	i	0.7	-9.1	19	6.3	CCOC(=O)C1=C(C)N(C[C@@H]2CC[C@@H](Cc3ccc(-c4ccccc4)cc3)O2)C(=O)NC1c1ccc(SCc2ccco2)c([N+](=O)[O-])c1 (some centres not stated)
-1	nt	-2.4	-8	i	0.6	5.1	-14	-0.6	CN(Cc1ccccc1)C(=O)Nc1ccc(Cl)cc1
2	nt	-4.6	8	i	0.67	-0.1	0	2.9	Nc1nonc1C(=O)NCCNC(=O)c1ccc(Cl)cc1
-9	nt	0.4	7	i	0.66	-4.0	1	-3.4	COC(=O)c1[nH]c2c(c1C)C(=O)CC(c1cccc(OC)c1)C2 (configuration not stated)
-4	5%	0.2	7	i	0.68	-5.5	2	0.8	CC(=O)C1C(c2ccc([N+](=O)[O-])cc2)c2c(noc2C)CC1(C)O (configuration not stated)
-10	nt	0.8	16	i	0.67	-1.8	17	1.9	COc1ccc(NC(=O)NCCc2ccc(Cl)cc2)cc1OC
2	?	nt	nt	nt	0.65	0.3	nt	nt	CC1(C)Oc2ccc(C(=O)N3CCCC3)cc2N(CC(=O)NCc2ccccc2)C1=O
nt	nt	-5.7	-18	i	nt	nt	-4	2.2	C[C@@H]1CN([C@H](C)CO)S(=O)(=O)c2ccc(C3=CCCCC3)cc2O[C@H]1CN(C)S(=O)(=O)c1cn(C)cn1
-6	3%	7.7	-3	i	0.79	-0.9	3	-6.3	CC(NS(=O)(=O)c1ccc(Br)cc1)C(c1cccs1)N1CCN(C)CC1 (configuration not stated)
1	2%	nt	nt	nt	0.73	-0.7	nt	nt	O=C(Oc1ccccc1[N+](=O)[O-])c1cccnc1
nt	nt	0.7	-74	i	nt	nt	-48	-3.1	N#C[C@H]1[C@@H](c2ccc(-c3ccc(F)cc3)cc2)[C@@H](CO)N1C(=O)Cc1ccccc1
-8	2%	nt	nt	nt	0.75	-0.5	nt	nt	Cc1cccc(OCC(=O)N(C)CCc2ccccn2)c1
nt	-1%	nt	nt	nt	0.68	8.1	nt	nt	CN(C)c1nc(N2CCN(c3ccc(F)cc3)CC2)c(C#N)c(=O)o1
5	-1%	7.0	-4	i	0.66	0.2	0	-1.6	Cc1cccc(C(=O)N2CCCC(CCC(=O)N3CCN(c4ccccn4)CC3)C2)c1C (configuration not stated)
-2	nt	nt	-11*	i	0.69	1.1	-25*	-2.8*	Cc1cccc(OCc2nc(C#N)c(N3CCCC3)o2)c1
nt	nt	-6.0	-2	i	nt	nt	-3	-1.6	C[C@H]1CN([C@@H](C)CO)C(=O)c2cccc(NC(=O)Nc3ccccc3)c2O[C@H]1CN(C)C(=O)NC1CCCCC1
nt	3%	nt	nt	nt	0.7	1.2	nt	nt	CCCCCCC(=O)NN1CCN(C)CC1
nt	nt	-0.1	4	i	nt	nt	0	0.5	CC=Cc1ccc2n(c1=O)C[C@H]1[C@H](CO)[C@@H](C(=O)NC3CCC3)[C@@H]2N1S(=O)(=O)c1cn(C)cn1 (mixture of isomers)
-5	nt	3.1	12	i	0.67	-1.9	12	2.3	CC(=O)c1cccc(NC(=O)CCc2nnc3ccc(N4CCOCC4)nn23)c1
nt	-1%	-1.0	7	i	0.67	-2.5	5	-2.5	COc1ccc(C(=O)C2CC2)cc1
-3	?	-1.2	-5	i	0.67	-3.1	-5	-3.6	CC1CCCCN1C(=O)c1ccc(NC(=O)c2ccccc2Cl)cc1 (configuration not stated)
-8	nt	-3.9	9	i	0.73	-1.5	9	0.8	COc1ccc2c(CCNC(=O)CN3C(=O)c4ccccc4C3=O)c[nH]c2c1
71	nt	-1.7	0	i	0.71	-1.7	1	-7.1	O=C1CC(c2ccccc2)NN1 (configuration not stated)
nt	nt	0.4	4	i	nt	nt	1	-1.3	Cc1ccc(S(=O)(=O)Nc2ccc3c(c2)C(=O)N([C@H](C)CO)C[C@H](C)[C@H](CN(C)C(=O)Nc2c(C)noc2C)O3)cc1
nt	nt	-2.9	1	i	nt	nt	0	-3.2	COc1ccc(CN(C)C[C@H]2Oc3c(NS(=O)(=O)c4ccccc4)cccc3C(=O)N([C@@H](C)CO)C[C@H]2C)cc1
nt	-2%	3.7	0	i	0.67	4.2	0	2.6	Cc1cc(CN2CCN(CC(=O)Nc3cc(Cl)ccc3-n3cncn3)CC2)no1
48	0%	nt	nt	nt	0.66	0.9	nt	nt	O=C(c1cc(-n2cnnc2)ccc1Cl)N1CCN(c2nc(-c3ccccc3)cs2)CC1

4 compounds from above, sorted by formula weight, ascending.
ALR H2O2 inh	Vif A3G	AF4-AF9 inh	rRNA inh HTS OD600	FGF22 binding	E coli growth	HNF4A DNA FP	rRNA inh HTS	rRNA inh HTS RFP	canonical_smiles
71	nt	-1.7	0	i	0.71	-1.7	1	-7.1	O=C1CC(c2ccccc2)NN1 (configuration not stated)
-9	nt	0.4	7	i	0.66	-4.0	1	-3.4	COC(=O)c1[nH]c2c(c1C)C(=O)CC(c1cccc(OC)c1)C2 (configuration not stated)
-8	nt	-3.9	9	i	0.73	-1.5	9	0.8	COc1ccc2c(CCNC(=O)CN3C(=O)c4ccccc4C3=O)c[nH]c2c1
nt	31%	-0.7	16	i	0.7	-9.1	19	6.3	CCOC(=O)C1=C(C)N(C[C@@H]2CC[C@@H](Cc3ccc(-c4ccccc4)cc3)O2)C(=O)NC1c1ccc(SCc2ccco2)c([N+](=O)[O-])c1 (some centres not stated)

The results go on:
ALR H2O2 inh	Vif A3G	AF4-AF9 inh	rRNA inh HTS OD600	FGF22 binding	E coli growth	HNF4A DNA FP	rRNA inh HTS	rRNA inh HTS RFP	canonical_smiles
-4	1%	nt	nt	nt	0.72	-4.2	nt	nt	Cc1ccc(N(CC(=O)NCC2CCCO2)C(=O)CCC(=O)Nc2ccccn2)cc1C (configuration not stated)
4	nt	1.0	-7	i	0.67	4.2	-3	1.4	O=C(N/C(=C\c1ccccc1)C(=O)N1CCCCC1)c1ccc(Br)o1
nt	nt	-0.1	1	i	nt	nt	3	0.3	O=C(NC1CCCC1)N1CC2(C1)[C@@H](c1ccccc1)[C@@H](CO)N2CC1CCOCC1
nt	-6%	2.5	-3	i	nt	-1.3	-8	0.9	O=C(O)C1C=Cc2ccccc2N1C(=O)c1ccccc1 (configuration not stated) (tested in a mixture with another compound)
7	12%	nt	nt	nt	nt	1.1	nt	nt	O=C(O)CC(C(=O)NCc1ccccc1)C1CCCO1 (configuration not stated)
0	nt	-1.5	nt	i	0.69	4.4	nt	nt	COc1ccccc1CNC(=O)COC(=O)c1ccncc1
2	-8%	nt	nt	nt	0.72	0.7	nt	nt	Cn1c(CO)cnc1SCc1ccccc1
-10	?	nt	nt	nt	nt	45*	nt	nt	COC(=O)C1=C(C)N=c2s/c(=C/c3ccoc3)c(=O)n2C1c1ccccc1 (configuration not stated)
-1	8%	0.5	23	i	nt	-2.8	26	2.1	CN1CCN(C(=O)C2=C[C@@H](c3ccccc3)C[C@@H](OCCCCO)O2)CC1
nt	nt	-1.4	1	i	nt	nt	0	-0.5	C[C@@H]1CN([C@@H](C)CO)C(=O)c2cc(C#CC3CCCC3)cnc2O[C@@H]1CN(C)C(=O)Cc1ccccn1
nt	nt	-1.7	12	i	nt	-4.1	2	-0.5	COc1cc(C2c3cc4c(cc3C3OC(=O)C2C3CO)OCO4)cc(OC)c1OC (configuration not stated)
-10	-7%	nt	nt	nt	0.75	3.4	nt	nt	CCN(c1ccc(OC)cc1)S(=O)(=O)c1nnc(NC(=O)c2ccc(C)cc2)s1
1	-1%	-0.9	12	i	0.7	-1.0	7	-2.5	COc1cccc(C(=O)OCC(=O)NCC2CCCO2)c1 (configuration not stated)
30	-1%	-3.9	-11	i	0.67	-0.7	1	-3.1	CC(NC(=O)c1ccccc1NS(=O)(=O)c1ccc(CCC(=O)O)cc1)c1ccccc1 (configuration not stated)
-8	5%	nt	nt	nt	0.65	0.5	nt	nt	Cn1c(SCc2ccccn2)nnc1-c1cnccn1
-9	29%	nt	nt	nt	0.71	0.6	nt	nt	O=C(CN1C(=O)NC(Cc2ccccc2)C1=O)Nc1ccc(F)cc1 (configuration not stated)
-3	2%	-2.1	-23	i	0.66	5.1	-25	-3.6	Cc1ccc(S(=O)(=O)NCCC(=O)NCCSc2ccc(Br)cc2)cc1
nt	nt	-2.0	4	i	nt	nt	-4	-2.0	C[C@@H]1CCCCO[C@H](CN(C)C(=O)Nc2cccc3ccccc23)[C@@H](C)CN([C@@H](C)CO)C(=O)c2cc(NC(=O)Nc3ccc(C(F)(F)F)cc3)ccc2O1
-39	13%	nt	nt	nt	nt	3.1	nt	nt	Cc1ccc(N/N=C(\Cc2nc3ccccc3[nH]2)c2ccccc2)cc1
-3	8%	-15	-5	i	0.68	-1.9	7	1.0	O=C(NCCN1CCOCC1)c1cnn2c1NC(c1cccs1)CC2C(F)(F)F (configuration not stated)
nt	nt	3.6	10&7	i	nt	2.7	3&19	2.3&2.3	C/C=C/c1cccc(-c2nc(C(=O)N3CCN(C)CC3)cc3c2[C@@H](CCO)N(C(=O)NC(C)C)C3)c1
nt	nt	0.3	-15	i	nt	nt	-1	3.5	CCS(=O)(=O)N1CC2(C1)CN(S(=O)(=O)c1ccc(C)cc1)[C@H](CO)c1[nH]c3cc(OC)ccc3c12
nt	nt	1.1	-8	i	nt	nt	-2	2.1	COc1ccc(CN(C)C[C@@H]2Oc3ccc(NC(=O)Nc4cccc5ccccc45)cc3C(=O)N([C@H](C)CO)C[C@H]2C)cc1
6	nt	0.3	9	i	0.67	1.2	1	-0.7	O=C(Nc1nc2ccc(F)cc2s1)Oc1ccccc1
7	-7%	nt	nt	nt	0.72	0.8	nt	nt	CC1CCCCN1CCn1c(=S)[nH]c2ncccc2c1=O (configuration not stated)
-6	-1%	-0.6	4	i	0.65	-1.6	4	-0.9	CCN(CC)CCCNC(=O)c1oc2ccc3c(c2c1C)C(O)CC(C)(C)O3 (configuration not stated)
